Assay outcomes as filed in PubChem.
D2 potentiator: positive allosteric modulators of human D2 dopamine receptor | P14416 | DiscoveRx D2 beta-arrestin cells, luminescence, 90 min; 100% = 57 uM dopamine signal | potentiation, % (test concentration not listed) | actives 0.23% (n = 360,000) | AID 624464; active = potentiation of 50% or more; inconclusive = 30% to 50%; inactive = 30% or less;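 note: compound concentration not given in the record; tested on top of an EC20 dose of dopamine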
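PathHunter D2 cells, attached overnight at 37 deg C, received compound in DMSO plus dopamine at EC20 (50 nM final) for 90 min at 37 deg C. Beta-arrestin recruitment was read as luminescence after 1 h with detection reagent at ambient temperature.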
Six1-Eya2 inh: Six1/Eya2 interaction inhibition; Q15475+O00167; actives 0.56% (n = 360,000); AlphaScreen GST-Six1/His-Eya2 binding, biochemical; hits give low values; control for the full effect not named in the record; activity change, % (test concentration not listed); in the data active = activity change below about -65%; inconclusive = about -30% to -65%; inactive = above about -30%; note: % is set by controls: 0 for no effect and ±100 for the full control effect; compound concentration not given in the record
Target sequence (O00167 whole entry, looked up): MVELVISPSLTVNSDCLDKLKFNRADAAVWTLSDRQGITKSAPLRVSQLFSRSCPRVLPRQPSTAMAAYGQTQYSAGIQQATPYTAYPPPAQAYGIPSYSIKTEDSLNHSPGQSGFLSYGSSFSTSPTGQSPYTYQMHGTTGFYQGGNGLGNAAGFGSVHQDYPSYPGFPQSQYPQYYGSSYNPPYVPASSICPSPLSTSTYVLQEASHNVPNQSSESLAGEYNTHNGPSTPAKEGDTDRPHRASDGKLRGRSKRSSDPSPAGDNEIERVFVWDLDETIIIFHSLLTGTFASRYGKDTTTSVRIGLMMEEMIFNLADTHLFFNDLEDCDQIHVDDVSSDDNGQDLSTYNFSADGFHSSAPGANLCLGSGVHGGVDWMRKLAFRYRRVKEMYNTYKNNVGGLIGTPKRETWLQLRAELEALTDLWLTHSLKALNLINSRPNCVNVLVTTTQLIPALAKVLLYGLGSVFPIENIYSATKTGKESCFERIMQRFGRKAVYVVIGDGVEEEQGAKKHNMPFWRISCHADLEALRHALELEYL
Target sequence (Q15475 whole entry, looked up): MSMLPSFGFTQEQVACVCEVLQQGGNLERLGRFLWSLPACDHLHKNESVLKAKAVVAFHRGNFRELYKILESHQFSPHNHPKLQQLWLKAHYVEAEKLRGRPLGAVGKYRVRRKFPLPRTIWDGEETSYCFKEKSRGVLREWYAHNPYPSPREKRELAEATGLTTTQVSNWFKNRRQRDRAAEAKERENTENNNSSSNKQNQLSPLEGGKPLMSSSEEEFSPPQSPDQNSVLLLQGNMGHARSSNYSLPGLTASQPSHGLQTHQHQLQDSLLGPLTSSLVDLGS
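AlphaScreen luminescence read after one hour at 37 °C in darkness. Pin-transferred compounds met GST-Six1 and His-Eya2 protein (5X stock 250 nM/500 nM) plus glutathione donor and Ni-chelate acceptor beads (5X, 50 ug/mL).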
PINK1 expr mod: changes PINK1 expression | PINK1 immunofluorescence, high-content cytometry, 24 h | Potency, µM (highest dose often 76.6 µM), inactives show at the top dose activation (PINK1 increase), usual class: activators | actives 0.2% (n = 410,000) | AID 624263; active = well fitted activation curve with a large enough effect; inconclusive = small, poorly fitted or top-dose-only effect; inactive = flat fitted curve, though single readings scatter; cell line not stated here;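 note: potency is the fitted concentration of half-maximal effect; % of control where 0% means no effect; nearly all actives have a fitted effect of over 65% in size; a mitochondrial uncoupler was the plate control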
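PINK1 protein, normally rapidly degraded, was detected by immunofluorescence after 24 hour compound treatment of a stable cell line. Titration data (5 concentrations) came from laser-scanning cytometry, with CCCP-treated wells as controls.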
TRPML1 blocker: inhibitors of human TRPML1 channel; actives 0.02% (n = 390,000); TRPML1-inducible cells, Ca2+ dye fluorescence, FDSS; hits give low values; inhibition of EC80 agonist-evoked calcium signal; Q9GZU1; activity change, negative = inhibition, % (concentration not given with the values); in the data active means activity change below about -50%; inconclusive means about -30% to -50%; inactive means above about -30%;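 note: stimulus is agonist 54-4 at its EC80 concentration; % is set by controls: 0 for no effect and ±100 for the full control effect; compound concentration not given in the record; the text of the record puts the active cut at -80%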
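Calcium fluorescence in TRPML1-DL cells induced overnight with Tet: a 110 s read after compound pin addition, then a 110 s antagonist read after challenge with 54-4 at 4 uM final (EC80).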
TRPML1 ag: human mucolipin-1 channel agonism; activation, % (test concentration not listed); TRPML1-expressing cells, Ca2+ dye fluorescence, FDSS; host cell line not named in the record; reference of the full effect not given here; Q9GZU1; actives 0.12% (n = 410,000); in the data active = activation above about 50%; inconclusive = about 30% to 50%; inactive = below about 30%; note: 0% is about no effect; the text of the record puts the active cut at 80%
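TRPML1-DL cells, Tet-induced overnight (~16 h, 37 degrees C), loaded 45-90 min at room temperature with Ca8 no-wash calcium dye plus quencher. FDSS fluorescence: 10 s baseline, compound pin-transfer, 110 s agonist read, then EC80 54-4 (4uM final) and 110 s antagonist read.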
D2 agonist: human D2 receptor agonism in beta-arrestin assay | AID 624465 | activation, % (no concentration beside the values) | DiscoveRx PathHunter D2 beta-arrestin, luminescence, 90 min; 100% = 57 uM dopamine signal | actives 0.084% (n = 360,000); in the data active = activation above about 40%; inconclusive = about 15% to 40%; inactive = below about 15%; note: compound concentration not given in the record; the text of the record calls up to 30% inactive
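DiscoveRx PathHunter D2 beta-arrestin cells (2,100/well) attached overnight, then compound-stimulated 90 min at 37 C in HBSS/10 mM HEPES/0.1% Tween-20 buffer; beta-galactosidase complementation read by luminescence after 1 h at ambient temperature. Dopamine 57 uM final (EC100) as control.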
Starred values were filed as active, the others as inactive; ? = inconclusive; . = no result given; & = joins results of further samples; [ ] = another dose, or the depositor's remark.

The line under a structure holds: D2 potentiator, Six1-Eya2 inh, PINK1 expr mod, TRPML1 blocker, TRPML1 ag, D2 agonist
COC(=O)[C@H](Cc1ccccc1)NC(=O)/C=C/[C@H]1O[C@@H](n2ccc(=O)[nH]c2=O)[C@H](O)[C@@H]1O
  -4, 5, 0.7%, -1, 0.3, 0.3
CCN1CCN(CC(=O)Nc2ccc(C)cc2C)C(=O)C1=O
  -2, -4, 1.2%, -6, -0.3, 0.0
COc1ccccc1NS(=O)(=O)c1cc2c3c(c1)CCN3C(=O)CC2
  -3, 10, ?, 2, 0.3, -0.8
O=C(COC(=O)c1ccccc1NC(=O)c1ccco1)Nc1ccc2c(c1)OCO2
  -6, -11, -0.3%, -14, 1.9, -0.1
CC(=O)N(C)c1ccc(NS(=O)(=O)c2cccc3nsnc23)cc1
  13, 3, 1.2%, -21, -0.2, 4.9
O=[N+]([O-])/C(C(=C(Cl)Cl)N1CCOCC1)=C1\NCCO1
  -23, -10, 0.2%, 5, -0.9, -5.3
O=S(=O)(Cc1ccc(Cl)cc1)CC(O)COCc1ccccc1 (stereo unspecified)
  0, -3, ., 26, -0.3, -0.4
CCOc1ccc(OCC(=O)OCC(=O)N2CCN(C(=O)c3ccco3)CC2)cc1
  26, 1, 1.9%, -28, -0.3, -0.2
COc1ccc(Cl)cc1CSc1n[nH]c(C)n1
  -2, 8, 1.7%[38.3 µM], -10, 0.7, -1.7
OCCSc1nc(-c2ccccc2)nc2ccc(F)cc12
  -13, -14, 0.0%, 18, 0.7, -1.5
CC1(Cc2cc(Cl)ccc2C(F)(F)F)C(=O)Nc2ccc(S(=O)(=O)NC3CCCCC3)cc21 (stereo unspecified)
  -5, 1, 2.0%, -23, 0.2, 10
COc1ccccc1C(=O)NC(=O)Nc1c(C)cc(C)cc1C
  1, 2, 1.7%, ., ., 2.1
COc1ccccc1NC(=O)COc1ccc(/C=N/NC(=O)CSCc2ccc(Cl)cc2)cc1
  -15, 5, ?, 23, 1.7, -1.0
O=C(NCC1CC1)c1ccc2c3n(nc2c1)-c1ccccc1CO3
  -7, -8, 0.9%, 7, 1.0, -2.6
CCOc1ccc(S(=O)(=O)Nc2cccc(C(=O)N3CC(C)OC(C)C3)c2)cc1 (stereo unspecified)
  0, 8, 0.3%, 10, 0.3, -3.9

Filtered by structure, the entries above with a furan ring, fused or not
The line under a structure holds: D2 potentiator, Six1-Eya2 inh, PINK1 expr mod, TRPML1 blocker, TRPML1 ag, D2 agonist
O=C(COC(=O)c1ccccc1NC(=O)c1ccco1)Nc1ccc2c(c1)OCO2
  -6, -11, -0.3%, -14, 1.9, -0.1
CCOc1ccc(OCC(=O)OCC(=O)N2CCN(C(=O)c3ccco3)CC2)cc1
  26, 1, 1.9%, -28, -0.3, -0.2

(further entries)
The line under a structure holds: D2 potentiator, Six1-Eya2 inh, PINK1 expr mod, TRPML1 blocker, TRPML1 ag, D2 agonist
Cc1cc(/C=C2/SC(=O)N(CC(=O)N3CCCC3)C2=O)ccc1N1CCOCC1
  -3, 5, -1.2%, -5, 2.2, -2.7
CCOC(=O)/C(=N\Nc1cccc(C(F)(F)F)c1)N1CCOCC1
  -1, -13, 5.2%, -2, 2.0, 5.0
COc1ccc(C(CNC(=O)CNC(=O)c2ccc(F)cc2)N2CCCC2)cc1 (stereo unspecified)
  -1, 4, 0.1%, 4, -0.6, 0.1
COc1ccc(Cn2nnnc2C(c2cc3cccc(C)c3[nH]c2=O)N2CCN(C)CC2)cc1 (stereo unspecified)
  -14, 5, -1.0%, -11, 0.3, -6.3
COc1ccc(-c2nnc3ccc(SC)nn23)cc1
  -10, -8, 0.7%[38.3 µM], -1, 0.8, 0.5
COc1ccccc1Nc1c2c(nc3ccc(NC(=O)c4ccccc4F)cc13)CCCC2
  ., ., 0.5%, 23, 0.6, .
CC(C)C[C@@H](CC#N)N1CCN(CCc2ccccc2)CCC1=O
  -32, -1, 2.1%, -14, -0.6&-0.5, -1.4
Cc1ccc(NCCC(=O)c2ccc(Cl)c(Cl)c2)cc1
  -7, -19, -1.6%[38.3 µM], 0, 0.5, 2.5
O=C(Nc1ccc(OC(F)(F)F)cc1)c1ccccc1-n1cnnn1
  -3, 0, -0.3%, 12, 3.2, 1.4
CCOC(=O)c1c(C)[nH]c(C(=O)OCC(=O)c2ccccc2)c1C
  -13, -12, 7.3%, -2, 0.1, -3.2
CCCCOc1ccc(S(=O)(=O)n2c(C)nc3ccccc32)cc1
  2, 5, 5.2%[38.3 µM], 34, 4.1, 0.8
COc1ccccc1N(C)S(=O)(=O)c1ccc(C)c(C(=O)NCc2ccccn2)c1
  -3, 24, 3.3%, -13, 1.3, 0.0
CCOCc1c(C(=O)NC2=Nc3ccccc3NC(CC)=C2C(=O)OCC)oc2ccccc12
  29, -3, 0.5%, 5, 2.6, 5.4
COc1ccc(OCC(O)CNC(=O)c2sccc2Cl)cc1 (stereo unspecified)
  2, -2, -0.9%, -2, 1.4, 0.1
Cc1ccc(-n2nc(C)c3c2OC(N)=C(C#N)C3c2ccc(F)cc2)cc1 (stereo unspecified)
  -7, -5, 0.4%[38.3 µM], 5, -0.6, -4.4
COc1ccc(NC(=O)CC2SC(=Nc3ccccc3)NC2=O)cc1 (stereo unspecified)
  -15, 0, 1.9%, 31, -0.4, 0.1
Cc1cc(Cl)ccc1NC(=O)CN1C(=O)NC2(CCCC2)C1=O
  -7, 44, 0.3%, 39, 0.8, -5.0
COc1ccccc1-c1coc2cc(O)cc(O)c2c1=O
  -6, -1, -2.2%, 16, -1.3, -3.0
O=C(Nc1ccc(S(=O)(=O)N2CCCCC2)cc1)c1ccc(CN2CCc3ccccc3C2)cc1
  -25, 0, -0.5%, -2, 0.7, 1.7
O=C(OCc1nnc(-c2ccc(Cl)cc2)o1)c1ccc(O)cc1
  -1, 2, 1.5%, -10, -0.9, -2.0
COCCNC(=O)C1Cc2cc(S(=O)(=O)N3CCCC3)ccc2N1C(C)=O (stereo unspecified)
  -9, 16, -0.6%, 6, -0.7, 1.2
COc1ccc2nc(C)cc(N3CCC(C(N)=O)CC3)c2c1
  -3, -2, -0.7%, -8, 0.2, -4.6
NC(=S)NN=C1CCCCCCCCCC1
  -17, -10, 2.9%, -10, 0.0, -4.6
O=C(c1ccc(Cl)cc1)N1CCC(O)(CSc2ccccc2)CC1
  -7, -8, -1.5%, -9, 1.6, -1.9
O=C(Nc1ccccc1Cl)ON=C1c2ccccc2-c2ccccc21
  -9, -5, 0.6%[38.3 µM], 25, 0.4, -2.8
COc1ccc(N2CCN(C(=O)c3ccc(S(=O)(=O)N4CCOCC4)cc3)CC2)cc1
  -2, -1, -4.4%[38.3 µM], -1, 0.1, -2.4
CCC1(C2=CCCCC2)C(=O)NC(=S)N=C1N (stereo unspecified)
  -3, 1, 3.5%, 15, -0.1, 0.5
Cc1ccc(Cl)cc1N1CCN(C(=O)Cc2cn(C)c3ccccc23)CC1
  -7, -28, -0.6%, -3, 3.3, -0.7
CCCC(C)C(=O)Nc1cc([N+](=O)[O-])ccc1F (stereo unspecified)
  13, 5, 0.3%, 22, 1.3, 1.0
CC1=NN(C(=O)c2ccc(Cn3nc(C)c(Br)c3C)cc2)C(O)(C(F)(F)F)C1 (stereo unspecified)
  -16, -6, 4.3%, 2, 1.9, 0.4
CN(C)c1ccc(-c2nc3ccc(Cl)cn3c2Nc2ccc3c(c2)OCCO3)cc1
  ., ., -4.0%, 30, 2.4, .
C#CCOCCOCCOCCNc1nc(N2CCN(C(=O)[C@H]([C@@H](C)CC)n3cc([C@@H](N)CC(C)C)nn3)CC2)nc(N2CCN(C(=O)[C@H](Cc3ccc(O)cc3)n3cc([C@@H](N)CC(C)C)nn3)CC2)n1
  -9, -13, -0.3%, -10, -0.8, -2.9
O=C(c1cccc(S(=O)(=O)Nc2cccc(C(F)(F)F)c2)c1)N1CCOCC1
  0, 1, 0.7%, -3, 0.9, 2.0
CCNc1ccc(N=Nc2c(C)n(C)n(-c3ccccc3)c2=O)cc1
  -14, -6, 2.2%, -3, 2.0, -6.2
C#CC(C)OCC1CNC(=S)O1 (stereo unspecified)
  -6, -1, 1.6%, 9, -0.2, -1.3
COc1cccc(CSc2ccc(S(=O)(=O)N3CCOCC3)cc2C(=O)NCC2CCCO2)c1OC (stereo unspecified)
  9, 6, -0.1%, -24, 2.6, 11
Cn1nc(C(F)(F)F)c(/C=N/OC(=O)c2ccccc2)c1Sc1ccc(Cl)cc1
  -11, -1, 0.8%, 30, 0.2, -3.0
CC1CCc2sc(C(=O)Nc3nnc(SCc4ccc(F)cc4)s3)cc2C1 (stereo unspecified)
  7, 5, 6.8%, 6, 0.9, 0.7
Cc1ccc2c(c1)-c1c(cnn1CC(=O)Nc1ccccc1C#N)CO2
  ., ., 6.7%, -2, -0.6, .
O=C(CSC1=Nc2ccccc2N=C(c2ccc(F)cc2)C1)Nc1cccc(C(F)(F)F)c1
  ., ., 26%, 25, 0.3, .
CC(C)(C)OC(=O)CNC(=O)c1[nH]cnc1C(=O)NC1CCNCC1
  -10, -2, -0.2%, 9, -0.6, -1.9
N#Cc1cc2c(nc1SCc1cccc(Cl)c1)CCCCC2
  3, 11, 0.1%, 0, 0.2, 0.2
O=C(Nc1cc(C(F)(F)F)ccc1Cl)c1cccc(N2C(=O)CCC2=O)c1
  -2, 5, 2.1%, 7, 0.3, 2.3
CCC(C)(C)n1nnnc1C(c1cccs1)N1CCCCC1 (stereo unspecified)
  -4, -15, 1.2%, 33, 0.9, -9.7
CN(C)c1ccc(C(CNC(=O)c2c(F)cccc2Cl)N2CCOCC2)cc1 (stereo unspecified)
  ., ., 3.3%, 24, -0.6, .
Cc1cc(OCC(=O)NC2CCN(Cc3ccccc3)CC2)c2c(C)cc(=O)oc2c1
  -39, 2, 0.1%, 5, -0.5, -2.0
COc1ccc(C(C(=O)NC2CCCC2)N(C(=O)c2ccco2)c2ccc3c(c2)OCO3)cc1OC (stereo unspecified)
  -16, 3, 2.5%, -5, -0.4, -4.0
CC(C)c1ccc(S(=O)(=O)Nc2ccc(O)c(Sc3nc4ccccc4s3)c2)cc1
  ., ., 0.1%, -19, 4.3, .
CC(=O)Nc1ccc(Nc2nc(C)cc(C)n2)cc1
  -15, 0, -0.4%, -5, 0.3, 4.6
Cc1ccc(-n2[nH]c(C)c(/C=N/c3cccc(C)n3)c2=O)cc1
  -11, 3, 1.0%, ., ., -5.0
O=C(Nc1cccc(S(=O)(=O)NC2=NCCCCC2)c1)c1cc(-c2ccco2)nc2ccccc12
  5, -26, ?, -4, -0.8, 2.1
N#Cc1c2c(c(Nc3ccc(F)cc3)n3c1nc1ccccc13)CCCC2
  -25, 2, 12%, -8, 2.0, -4.5
Cc1cccc(N2CC(C(=O)OCc3ccc([N+](=O)[O-])cc3)CC2=O)c1 (stereo unspecified)
  1, -1, -0.9%, -15, 0.8, -0.5
COc1nnc(-c2ccc(C)c(S(=O)(=O)N(C)C)c2)c2ccccc12
  -2, ?, -0.6%, -10, 0.8, 0.0
